Source: PubChem (Vanderbilt University)
GIRK2 act – activators of human GIRK2 potassium channels | G protein-activated inward rectifier potassium channel 2 (Homo sapiens), P48051 | HEK293-GIRK2 thallium flux, Thallos fluorescence | calls only for hits at 25 µM | 63,000 tested, 0.05% active;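 active means among the strongest 0.2% of first-round signals and kept after retests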;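 further: first round at about 10 µM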
Target sequence (P48051 whole entry, looked up): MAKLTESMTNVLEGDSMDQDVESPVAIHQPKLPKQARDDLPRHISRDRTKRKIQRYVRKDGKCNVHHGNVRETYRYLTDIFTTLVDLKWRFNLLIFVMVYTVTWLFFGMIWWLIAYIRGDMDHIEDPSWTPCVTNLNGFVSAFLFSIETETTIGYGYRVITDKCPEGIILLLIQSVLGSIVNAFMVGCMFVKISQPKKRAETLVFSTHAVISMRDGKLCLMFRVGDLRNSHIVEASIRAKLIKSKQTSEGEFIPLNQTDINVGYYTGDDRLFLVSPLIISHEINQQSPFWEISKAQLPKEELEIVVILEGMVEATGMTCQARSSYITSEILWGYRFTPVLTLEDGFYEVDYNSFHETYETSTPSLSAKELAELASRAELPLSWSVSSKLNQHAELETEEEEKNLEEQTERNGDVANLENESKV
Calls only; i = inactive. Only part of the results is shown; count on the stated rates, not on these rows.

Cc1cccc(Nc2nc(CC(=O)Nc3ncc(C)s3)cs2)n1
  GIRK2 act = i
COc1cccc2cc(-c3csc(NN=C4CCN(C)CC4)n3)c(=O)oc12
  GIRK2 act = i
O=C(C1CCCO1)N1CCN(c2nc(N3CCCC3)nc(-n3ccnc3)n2)CC1 (centres undefined)
  GIRK2 act = i
CCc1cc(=O)n(CCNC(=O)COc2ccc(F)cc2F)cn1
  GIRK2 act = i
Cn1c(=O)c2c(nc3[nH]c(C(C)(C)C)cn32)n(C)c1=O
  GIRK2 act = i
O=C(NCCS(=O)(=O)N1CCN(c2cccc(Cl)c2)CC1)c1ccc2c(c1)OCO2
  GIRK2 act = i
Cc1ccc(S(=O)(=O)c2c(C)nn(-c3ccccc3)c2OC(=O)CC2CCCCC2)cc1
  GIRK2 act = i
Cc1ccc(NC(=O)CN2C(=O)c3ccccc3C2=O)cc1N1CCCC1=O
  GIRK2 act = i
O=C(NCCn1nc(-c2ccco2)ccc1=O)c1cnn(-c2ccccc2)n1
  GIRK2 act = i
COc1ccccc1OCC(=O)Nc1ccc2c(=O)c3cccc(F)c3oc2c1
  GIRK2 act = i
O=C1CC(c2nc(-c3ccc(Br)cc3)no2)CN1c1ccc2c(c1)OCO2 (centres undefined)
  GIRK2 act = i
CSc1ccccc1C(=O)Nc1nc(CN2CCc3ccccc3C2)cs1
  GIRK2 act = i
CCSc1ccccc1C(=O)NCCn1nc(C(F)(F)F)n(C)c1=O
  GIRK2 act = i
CC(=O)N1CCN(C(=O)c2ccc3nsnc3c2)CC1
  GIRK2 act = i
COc1ccc(-c2cc3c(=O)n(CC(=O)Nc4ccc(C)cc4Cl)ccn3n2)cc1OC
  GIRK2 act = i

O=C(NCC1CCN(c2cnccn2)CC1)c1ccc(Cl)cc1Cl
  GIRK2 act = i
Cc1nc(C)c(CNC(=O)Nc2ccc(C)c(F)c2)s1
  GIRK2 act = i
Cc1noc(CNC(=O)C2CCN(C(=O)c3ccc([N+](=O)[O-])o3)CC2)n1
  GIRK2 act = i
COc1ccc2c(c1)c(CC(=O)Nc1cccc(SC)c1)c(C)n2C(=O)c1ccc(Cl)cc1
  GIRK2 act = i
O=C1CCCCN1c1ccc(NS(=O)(=O)Cc2cc(F)ccc2F)cc1
  GIRK2 act = i
CCCc1c(OCCCCc2nn[nH]n2)ccc(C(C)=O)c1O
  GIRK2 act = i
CNC(=O)C1CCC(Cn2c(=O)c3sccc3n(CC(=O)Nc3ccc(C(C)=O)cc3)c2=O)CC1 (centres undefined)
  GIRK2 act = i
Oc1ccc2c3c1CCCN3CCC2
  GIRK2 act = i
CC(C)(C)C(O)CCNC(=O)CSCc1ccccc1 (centres undefined)
  GIRK2 act = i
COc1cccc(-c2noc(C3CCCN(S(=O)(=O)c4cccs4)C3)n2)c1 (centres undefined)
  GIRK2 act = i
CCOc1ccccc1-c1nc(Cn2ccn3nc(-c4ccc(C)c(C)c4)cc3c2=O)c(C)o1
  GIRK2 act = i
Cc1ccc(C)c(S(=O)(=O)c2c(N)n(/N=C\c3ccco3)c3nc4ccccc4nc23)c1
  GIRK2 act = i
COc1ccc(-c2csc(-n3nc(C)cc3NC(=O)c3c(F)cccc3F)n2)cc1OC
  GIRK2 act = i
CCc1noc(-c2ccc(=O)n(CC(=O)Nc3cccc(C(C)C)c3)c2)n1
  GIRK2 act = i
Cc1csc(C(=O)NCC(C)(O)c2cccs2)c1 (centres undefined)
  GIRK2 act = i

Taken from the entries so far (five entries):
Cc1cccc(Nc2nc(CC(=O)Nc3ncc(C)s3)cs2)n1
  GIRK2 act = i
COc1cccc2cc(-c3csc(NN=C4CCN(C)CC4)n3)c(=O)oc12
  GIRK2 act = i
O=C(C1CCCO1)N1CCN(c2nc(N3CCCC3)nc(-n3ccnc3)n2)CC1 (centres undefined)
  GIRK2 act = i
CCc1cc(=O)n(CCNC(=O)COc2ccc(F)cc2F)cn1
  GIRK2 act = i
Cn1c(=O)c2c(nc3[nH]c(C(C)(C)C)cn32)n(C)c1=O
  GIRK2 act = i

Further structures
O=C(CN1N=C(c2ccccc2)c2ccccc2S1(=O)=O)NCCc1cccs1
  GIRK2 act = i
CCCn1c(=O)c2c(nc3n(-c4ccccc4OC)c(C)cn23)n(C)c1=O
  GIRK2 act = i
CN1C(=O)c2cc(NC(=O)Nc3ccc4c(c3)OCO4)ccc2Oc2ccccc21
  GIRK2 act = i
CCc1cc(-c2n[nH]c(C)c2-c2nc(C)cs2)c(O)cc1OC
  GIRK2 act = i
CCOC(=O)c1ccc(NC(=O)CSc2ncccc2C(=O)O)cc1
  GIRK2 act = i
O=c1n(Cc2ccccc2)c2ccc([N+](=O)[O-])cc2n1Cc1ccccc1
  GIRK2 act = i
COc1cc(NC(=O)c2ccccc2)c(OC)cc1NC(=O)C=C(C)C
  GIRK2 act = i
O=C(c1nnn(-c2ccc(Cl)cc2)n1)N1CCN(c2ccccc2O)CC1
  GIRK2 act = i
C=CCOCC(O)Cn1c(N/N=C\C=C\c2ccc([N+](=O)[O-])o2)nc2c1c(=O)n(C)c(=O)n2C (centres undefined)
  GIRK2 act = i
Cc1ccc(S(=O)(=O)Nc2ccc3c(c2)N(S(=O)(=O)c2ccccc2)CCC3)c(C)c1
  GIRK2 act = i
CCCCn1c(=O)c2c(nc3n(-c4ccccc4O)c(C)cn23)n(C)c1=O
  GIRK2 act = i
Cn1nnn(-c2ccc(NC(=O)NC3CCCCC3)cc2)c1=O
  GIRK2 act = i
O=C(NCCc1ccccc1)c1ccc(NS(=O)(=O)c2cccc(Cl)c2)cc1
  GIRK2 act = i
CCC(C)NC(=O)CCn1c(=O)c2ccccc2n2c(SCC(=O)NCc3cccs3)nnc12 (centres undefined)
  GIRK2 act = i
CCc1ccc(S(=O)(=O)NCCCN2CCN(c3ccccc3)CC2)s1
  GIRK2 act = i

O=C(Nc1nc(C(=O)Nc2nc(-c3ccco3)cs2)co1)c1cnccn1
  GIRK2 act = i
C#CCOCC1CCN(C(=O)c2cc(-c3cccs3)[nH]n2)CC1
  GIRK2 act = i
COc1ccc(C2NC(=O)NC(C)=C2C(=O)OCc2ccccc2)c(OC)c1 (centres undefined)
  GIRK2 act = i
Cc1nc(C)c(-c2cc(C(=O)N3CCN(c4ccccc4)CC3)n[nH]2)s1
  GIRK2 act = i
O=C(c1ccc(Cl)s1)N1CC(c2nc(-c3ccc[nH]c3=O)no2)C1
  GIRK2 act = i
COc1cc(/C=C/C(=O)Nc2nnc(-c3cc(C)oc3C)o2)cc(OC)c1OC
  GIRK2 act = i
CCOC(=O)N1CCN(C(=O)c2csc(Nc3nc(C)cc(C)n3)n2)CC1
  GIRK2 act = i
Cn1c(=O)c2c(nc(Br)n2CCCOc2ccccc2)n(C)c1=O
  GIRK2 act = i
CC(C)(Oc1ccc(Cl)cc1)C(=O)NCC1CCN(c2cnccn2)CC1
  GIRK2 act = i
Cc1cc(C)c2c(n1)nn1c(NCCCN3CCOCC3)cc(C)nc21
  GIRK2 act = i
COC(=O)c1ccc(C(=O)NCC(c2cn(C)c3ccccc23)N(C)C)cc1 (centres undefined)
  GIRK2 act = i
O=C1OC(C(=O)Nc2nccs2)Cc2ccc(Cl)cc21 (centres undefined)
  GIRK2 act = i
Cc1nc(SCC(=O)Nc2ccc(Br)cc2)cc(-c2ccccn2)n1
  GIRK2 act = i
CN(C)S(=O)(=O)c1ccc(C(=O)NCCCS(=O)(=O)N2CCN(c3ncccn3)CC2)cc1
  GIRK2 act = i
N#Cc1ccc(OC2CCN(C(=O)NCCCc3ccccc3)CC2)nc1
  GIRK2 act = i

Reprinted from the part before: 7 compounds; new compounds follow.
CC(C)(Oc1ccc(Cl)cc1)C(=O)NCC1CCN(c2cnccn2)CC1
  GIRK2 act = i
Cc1cc(C)c2c(n1)nn1c(NCCCN3CCOCC3)cc(C)nc21
  GIRK2 act = i
COC(=O)c1ccc(C(=O)NCC(c2cn(C)c3ccccc23)N(C)C)cc1 (centres undefined)
  GIRK2 act = i
O=C1OC(C(=O)Nc2nccs2)Cc2ccc(Cl)cc21 (centres undefined)
  GIRK2 act = i
Cc1nc(SCC(=O)Nc2ccc(Br)cc2)cc(-c2ccccn2)n1
  GIRK2 act = i
CN(C)S(=O)(=O)c1ccc(C(=O)NCCCS(=O)(=O)N2CCN(c3ncccn3)CC2)cc1
  GIRK2 act = i
N#Cc1ccc(OC2CCN(C(=O)NCCCc3ccccc3)CC2)nc1
  GIRK2 act = i
COc1ccc(NC(=O)Cn2nc3cc(-c4ccccc4)nc(C)n3c2=O)cc1OC
  GIRK2 act = i
COCCCn1c(C(=O)Nc2ccc(Cl)cc2)cc2c(=O)n3cccc(C)c3nc21
  GIRK2 act = i
Cc1cn2c3c(=O)[nH]c(=O)n(C)c3nc2n1CCCNc1ccc(Cl)cc1
  GIRK2 act = i
COc1ccc(CC(=O)N2CC(c3nc(-c4cccs4)no3)C2)cc1OC
  GIRK2 act = i
O=C(c1cccs1)N1CCN(C(=S)c2cccc(Br)c2)CC1
  GIRK2 act = i
Cc1ccc(-n2nnc(C(=O)Nc3ccc4c(c3)OCCO4)n2)cc1
  GIRK2 act = i
CS(=O)(=O)c1ccc(Nc2nc(C(=O)N3CCc4ccccc43)cs2)cc1
  GIRK2 act = i
O=c1oc2ccc(F)cc2cc1S(=O)(=O)N1CCCCCC1
  GIRK2 act = i
Cc1cc(NC(=O)c2cn(C)nc2S(=O)(=O)N2CCN(c3ccc(Cl)cc3)CC2)ccc1F
  GIRK2 act = i
COc1ccc(CC(C)(O)CNC(=O)c2cccc(C#N)c2)cc1 (centres undefined)
  GIRK2 act = i
Cc1cc(N2C(=O)C(O)=C(C(=O)c3cccs3)C2c2cccc(Cl)c2)no1 (centres undefined)
  GIRK2 act = i
CC(=O)Cn1c(=O)c2c(nc3n(CCN4CCOCC4)c(C)cn23)n(C)c1=O
  GIRK2 act = i
